Screening results as filed in PubChem BioAssay.
HIV TAR-Tat = HIV-1 TAR-Tat binding disruption; HIV-1 TAR RNA, Tat peptide displacement FRET; hits give high values; hit rate 0.6% among 100,000; z-score (concentration not given with the values);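 further: score is relative to mean and SD of negative controls; some compounds called inactive have numbers as strong as hits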
CDC25B CDK2 inh = human CDC25B-CDK2/CyclinA binding inhibition. P30305+P24941. HTRF CDC25B-CDK2/CyclinA binding, anti-His/anti-Flag; hits give high values. z-score (test concentration not listed). hit rate 0.72% among 94,000;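 further: score is relative to mean and SD of negative controls; strong numbers were not always called active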
Numbers without * were called inactive; · = not tested or not shown.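 How the source made its calls: active means z-score from 3 up in half or more of its runs; inactive means the rest.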 Not a hit list, and some 0.89% of all compounds hit somewhere here.

Molecule	HIV TAR-Tat	CDC25B CDK2 inh
CN(CC(=O)c1ccc2cc[nH]c2c1)Cc1ccco1	-0.69	3.3
Cc1ccc(S(=O)(=O)NCCc2csc3nc(-c4cccs4)nn23)c(C)c1	-0.75	·
COc1ccc(C(=O)c2sc3nc(-c4ccc(OC)cc4)ccc3c2N)cc1	-1.2	-0.13
c1ccc(CCc2nc(-c3cccnc3)no2)cc1	-0.97	-1.2
O=C(COc1ccc(Cl)cc1)Nc1ccc(Cl)cn1	0.8	-1.7
COC(=O)C1=C(C)N=C2SC=C(OC(C)=O)N2C1c1ccc(OC)cc1 (stereo unspecified)	·	0.96
CCCn1c2ccccc2c2ccccc21	1.2	0.12
CC1CCc2c(sc(NC(=O)Cn3nc(C(F)(F)F)c4c3CCC4)c2C(N)=O)C1 (stereo unspecified)	0.95	-1
CC1(C)C2CCC13CS(=O)(=O)N1OC13C2 (stereo unspecified)	·	-2.5
CC1CC(Nc2ncnc3nc[nH]c23)CC(C)(C)C1 (stereo unspecified)	-0.13	-0.77
CC(NC(=O)C(=O)NC(C)C1COc2ccccc2O1)C1COc2ccccc2O1 (stereo unspecified)	0.41	-1.3
O=C(NC1CCCCC1)c1cc(NS(=O)(=O)c2ccc(F)cc2)ccn1	1.8	·
Cc1ccc(-c2oc3ncnc(N)c3c2-c2ccc(C)cc2)cc1	·	-1.7
O=C(O)C1=CC(c2ccccc2F)n2nnnc2N1 (stereo unspecified)	1.4	·
CCOC(=O)c1c(NC(=O)c2cc(C)no2)sc(C)c1C	0.81	-0.59
NC(=O)c1c(NC(=O)c2cc(-c3ccco3)on2)sc2c1CCCC2	·	-0.38
O=C(Cn1c(=O)oc2cc(S(=O)(=O)N3CCCC3)ccc21)NC1CCCCCC1	·	-2.1
CCc1cc2c(NC(CC)CN3CCOCC3)ncnc2s1 (stereo unspecified)	1.1	·
CN1C(=O)C(O)(CC(=O)c2ccc3c(c2)OCCO3)c2cc(Br)ccc21 (stereo unspecified)	·	0.54
CCc1nnc2c(NCc3ccccn3)nc3ccccc3n12	-1	·
Cc1nc(-c2cccs2)c(CC(=O)Nc2ccc(N(C)C)cc2)s1	-3.1	-2.5
C/C(=N\OCC(=O)Nc1ccc(OC(F)(F)F)cc1)c1ccc(Cl)cc1	·	-0.45
COc1ccc(N2C(=O)c3cccnc3C2Nc2ccc3c(c2)OCO3)cc1 (stereo unspecified)	-1.2	·
C=C1O[C@@](CO)(n2cnc3c(N)ncnc32)[C@H](O)[C@@H]1O	1.6	·
CCCNC(=O)c1cnc2c(C)cccn2c1=O	1.7	·
O=C(NC1CC1)C1CCN(S(=O)(=O)c2ccc3[nH]c(=O)oc3c2)CC1	1.2	·
COc1ccccc1CNS(=O)(=O)c1cccc2cccnc12	·	-1.5
O=C(Oc1ccc2cc(Br)ccc2c1)c1ccco1	0.81	0.58
Cc1ccc(-c2nn(-c3ccccc3)cc2C2CC(c3cccs3)=NN2S(C)(=O)=O)cc1 (stereo unspecified)	-1.4	-2.2
O=C(CSc1ncc(CO)n1Cc1ccc(F)cc1)NCc1ccc2c(c1)OCO2	1	·

Copied from the list.
CC1CC(Nc2ncnc3nc[nH]c23)CC(C)(C)C1 (stereo unspecified) – CDC25B CDK2 inh: -0.77
CCOC(=O)c1c(NC(=O)c2cc(C)no2)sc(C)c1C – CDC25B CDK2 inh: -0.59
CCc1nnc2c(NCc3ccccn3)nc3ccccc3n12 – HIV TAR-Tat: -1
CCc1cc2c(NC(CC)CN3CCOCC3)ncnc2s1 (stereo unspecified) – HIV TAR-Tat: 1.1
O=C(Cn1c(=O)oc2cc(S(=O)(=O)N3CCCC3)ccc21)NC1CCCCCC1 – CDC25B CDK2 inh: -2.1

Next section
Molecule	HIV TAR-Tat	CDC25B CDK2 inh
CC1CC(C)CN(C(=O)CCC(=O)N2CC(C)Oc3ccccc32)C1 (stereo unspecified)	1	-0.38
CCOc1cc2c(cc1OCC)C(c1ccc(Br)cc1)CC(=O)N2 (stereo unspecified)	1.4	-0.57
CCCc1cc(C2CCCN2S(=O)(=O)c2cccc3nsnc23)no1 (stereo unspecified)	-8.5	·
O=C(NC1CCN(Cc2ccccc2)CC1)c1ccccc1	·	-0.64
Oc1ccc(Cc2ccc(O)c3ncccc23)c2cccnc12	1.9	-3.8
O=S(=O)(c1ccc2nc(Nc3ccc(Br)cc3F)ccc2c1)N1CCCC1	2.3	·
COc1cccc(NC(=O)Nc2c[nH]c(=O)[nH]c2=O)c1	2.4	·
COC(=O)c1sccc1N/N=C(/C#N)C(=O)c1ccc(Cl)cc1	·	-0.92
CCOC(=O)C1=C(N)Oc2c(oc(CO)cc2=O)C1c1ccc(Cl)cc1 (stereo unspecified)	·	-1.3
CCC(=O)c1c(-c2ccccc2)nc2n(C)c3ccccc3n12	·	-1.2
Cc1cc(NS(=O)(=O)c2ccc(-n3cccn3)cc2)ccc1Br	0.31	·
O=c1c(Cc2ccccc2OCc2ccccc2)coc2ccccc12	·	-2.5
O=S1(=O)c2ccccc2NC(c2cccc(C(F)(F)F)c2)N1Cc1ccccc1 (stereo unspecified)	·	-1.2
COC(=O)CN1C(=O)CSc2ccc(S(=O)(=O)NC3CCCC3)cc21	0.45	·
COc1ccc(-n2c(C)nnc2SCc2nc(-c3ccc(C)cc3)no2)cc1	1.1	-1.9
CCOC(=O)c1cc2n(n1)CC(C)(C(=O)NC1CCCC1)N(CCc1cccs1)C2=O (stereo unspecified)	-0.34	·
O=C(Oc1ccccc1F)c1cc(-c2cccs2)on1	0.57	-1.7
O=C(CCSCCc1ccncc1)N1CCOCC1	1.3	·
O=C1c2cccnc2C(Nc2cccc(Br)c2)N1Cc1ccco1 (stereo unspecified)	0.45	·
O=C(O)CCN1C(=O)SC(Nc2cccc3ccccc23)C1=O (stereo unspecified)	·	-6.3

Fetched one by one from the entries so far (3):
Molecule	HIV TAR-Tat	CDC25B CDK2 inh
CCOC(=O)c1cc2n(n1)CC(C)(C(=O)NC1CCCC1)N(CCc1cccs1)C2=O (stereo unspecified)	-0.34	·
O=S1(=O)c2ccccc2NC(c2cccc(C(F)(F)F)c2)N1Cc1ccccc1 (stereo unspecified)	·	-1.2
O=c1c(Cc2ccccc2OCc2ccccc2)coc2ccccc12	·	-2.5

(more compounds)
Molecule	HIV TAR-Tat	CDC25B CDK2 inh
CCOc1ccc(N2COc3ccc(F)cc3C2)cc1	·	-1.6
CC1=C(C(=O)OCCOC(C)C)C(c2cccc(O)c2)C2=C(CC(c3cccs3)CC2=O)N1 (stereo unspecified)	2.7	-1.7
Cc1ccc(F)c(N2C(=O)c3c(C)nc4ccccc4c3C2=O)c1	-1.2	-1.2
Cc1cc(C)c(C)c(CN2C(=O)CC(C)Nc3ccccc32)c1C (stereo unspecified)	0.16	0.45
NC(=O)CSc1nc(-c2ccc(Cl)cc2)nc2c1Cc1ccccc1O2	-1.7	-0.63
Clc1cccc(-c2ccc(-c3nn4c(-c5ccco5)nnc4s3)o2)c1	17*	-0.52
CC1=C(c2ccc(C)cc2)S(=O)(=O)N=C1N1CCN(C(=O)c2ccco2)CC1	-0.35	-1.7
Cc1ccc2c(c1)C(O)(CC(=O)c1ccccc1C)C(=O)N2 (stereo unspecified)	0.95	·
COC(=O)c1cc2occc2n1Cc1cccc(Cl)c1	-0.74	-2.1
O=C(C1=C(N2CCN(c3ccccc3F)CC2)c2ccccc2S1(=O)=O)N1CCOCC1	1.6	·
CC(C)c1ccc(-c2c(N3CCCc4ccccc43)c(=O)c2=O)cc1	2.6	·
c1cc(-c2nc3cc4sc(-c5ccn[nH]5)nc4cc3s2)[nH]n1	1	1.6
O=C(CC1NC(=O)NC1=O)Nc1nccs1 (stereo unspecified)	·	-0.41
COc1ccc(-c2nc3n(n2)C(=O)CC(c2ccc(F)cc2)S3)cc1 (stereo unspecified)	·	-0.49
COc1cc2n(c(=O)n1)CCc1sccc1-2	0.34	-2.5
CCCCNc1nc(Nc2ccc(Cl)cc2C)c2cnn(C)c2n1	1.2	·
O=C(c1ccccc1)N1CCN(C2=NS(=O)(=O)c3ccccc32)CC1	-0.21	-1.1
C=CCn1c(CSc2ccccc2[N+](=O)[O-])n[nH]c1=S	·	-2.7
N#Cc1cnc(N2CCc3ccccc32)nc1N	·	-1.5
Cc1ccc2oc(C(=O)Nc3sc4c(c3C(=O)NCc3ccco3)CCC4)cc(=O)c2c1	-2.3	-0.74
COC(=O)c1ccc(C2CC(=O)Nc3c2c(=O)nc(SCc2ccccc2)n3C)cc1 (stereo unspecified)	0.99	-0.12
COc1ccc(Br)cc1C1N2CC3(C(C)C)CN1CC(C(C)C)(C2)C3=O (stereo unspecified)	0.33	-1
Cc1cccc(N2CCN(C(=O)CC(C(=O)N3CCc4ccccc43)n3ccnc3)CC2C)c1 (stereo unspecified)	·	-2.4
O=C(CSc1nc2ccccc2s1)OCC(=O)c1ccc(F)cc1	-2.6	·
Cc1noc2ncnc(N3CCCC(C(=O)NCCCN4CCC(N5CCCCC5)CC4)C3)c12 (stereo unspecified)	3.2	·
OC(CNCc1ccc(Cl)c(Cl)c1)Cn1ccc2ccccc21 (stereo unspecified)	·	-0.77
CCN(CC)CCNC(=O)c1cc2n(n1)CC(C)(C(=O)NC1CCCC1)N(C)C2=O (stereo unspecified)	0.29	·
CCN1CCN(C(=O)c2sc3ncnc(N4CCCCC4C)c3c2C)CC1 (stereo unspecified)	·	-0.71
COc1cccc(Oc2ncnc3sc(C)cc23)c1	-0.96	·
COc1cccc(-n2c(C)c(C)c3c2ncn2nc(-c4ccc(N(C)C)cc4)nc32)c1	1.6	-2.7
CCOC(=O)CNC(=O)Nc1ccc2nc3n(c(=O)c2c1)CCCC3	0.69	·
CN(C)c1ccc(NC2CC(=O)N(c3ccc(N4CCOCC4)cc3)C2=O)cc1 (stereo unspecified)	-0.58	-0.02
Cc1ccc(CCNc2c(-c3ccc(C(C)C)cc3)c(=O)c2=O)cc1	1.9	·
Cc1ccc(NC(=O)C(=O)N/N=C/c2ccccn2)cc1C	·	-1.7
CC1CCCC(C)N1c1nnc(NC(=O)Nc2ccc(Cl)cc2)s1 (stereo unspecified)	0.61	-1.1
COc1ccc(C2C(=O)N(C3CCCCC3)CC(=O)N2CCc2ccc(OC)c(OC)c2)cc1 (stereo unspecified)	·	-3.9
O=C(Cn1cnc(S(=O)(=O)N2CCCCC2)c1)Nc1ccccn1	0.64	·
CN1CCN(C(=O)C2CCCN(S(=O)(=O)c3ccc(Cl)cc3)C2)CC1 (stereo unspecified)	·	-1.6
COCc1cc(C)nc(Nc2ccccc2OC)c1C#N	1.7	-4.5
Nc1cc(N)nc(SCCC(=O)O)n1	0.58	0.06
Nc1c(-c2nc(-c3ccncc3)no2)nnn1-c1ccc(Cl)cc1	-2.7	·
CC(C)CN(CC(C)C)C(=O)CN(C)S(=O)(=O)c1ccc2c(c1)c(=O)n(C)c(=O)n2C	0.39	-1.6
O=C1COc2cc(S(=O)(=O)CCC(=O)N3CCCC3)c(Cl)cc2N1	0.78	·
c1cnc2nc(SCc3ccc(CSc4nc5ncccc5[nH]4)cc3)[nH]c2c1	-0.12	0.04
COc1ccc(Cl)cc1NC(=O)c1cc2c(s1)-c1ccsc1CC2	-1	·
Cc1c(N2C(=O)CSC2c2ccc(F)cc2)c(=O)n(-c2ccccc2)n1C (stereo unspecified)	1.7	-2.7
CCn1c2ccccc2c2cc(C3C(C#N)=C(N)Oc4n[nH]c(COC)c43)ccc21 (stereo unspecified)	-0.2	-1.4
COc1c(Br)csc1-c1nnc(-c2cccc([N+](=O)[O-])c2)o1	·	-0.21
COc1ccc(Nc2nc3c4ccccc4n(C(C)=O)c3s2)cn1	0.35	14*
CCOc1ccc(Nc2c(C)c(C)nc3ncnn23)cc1	0.31	·

Exported with values under each structure: entries from further up.
The line under a structure holds: HIV TAR-Tat	CDC25B CDK2 inh
COc1ccc(Nc2nc3c4ccccc4n(C(C)=O)c3s2)cn1
→ 0.35	14*
COc1c(Br)csc1-c1nnc(-c2cccc([N+](=O)[O-])c2)o1
→ ·	-0.21
Cc1c(N2C(=O)CSC2c2ccc(F)cc2)c(=O)n(-c2ccccc2)n1C (stereo unspecified)
→ 1.7	-2.7
CC(C)CN(CC(C)C)C(=O)CN(C)S(=O)(=O)c1ccc2c(c1)c(=O)n(C)c(=O)n2C
→ 0.39	-1.6

The results go on:
Molecule	HIV TAR-Tat	CDC25B CDK2 inh
COc1cc(OC)c(OC)cc1CN1CCN(Cc2ccc(OC)c(OC)c2)CC1	·	0.92
O=C(NCc1ccco1)c1cccc(C(=O)NCc2ccco2)n1	0.98	·
CCC(=O)N1CCc2cc(Br)cc(S(=O)(=O)CCC(=O)N3CCCCCC3)c21	·	-0.11
Cc1cc(C)cc(NC(=O)Nc2cccs2)c1	2.6	2.8
COc1ccc2c(c1)C=C(C(=O)NCc1cc(Br)ccc1OC)CO2	0.06	·
CCn1c(=O)n(CC)c2cc(S(=O)(=O)c3ccc(C)cc3)c(N)cc21	-7.3	·
CC1(C)CC(=O)c2cc(C(=O)NC3CCSC3=O)c(=O)n(-c3ccc(Cl)cc3)c2C1 (stereo unspecified)	0.43	0.03
CCCCC(CC)CNC(=O)C1CCCN(S(=O)(=O)c2ccc3c(c2)oc(=O)n3C)C1 (stereo unspecified)	0.23	-2.3
CCOC(=O)c1ccc(N=C(N)SCc2ccccc2)cc1	·	-0.69
O=C1CC(C(=O)Nc2ccc(F)c(Cl)c2)N=C(Nc2ccccc2)N1 (stereo unspecified)	0.77	·
CCCCCSc1nc2n(n1)C(c1ccc(OC)c(OC)c1)C1=C(CCCC1=O)N2 (stereo unspecified)	0.66	-0.83
CCOC(=O)c1nc2oc(C)c(C)c2c(=O)[nH]1	1.5	-1.3
